INS promoter inh – TRM-6 insulin promoter activity inhibition. inhibition, % at 2 µM. TRM-6 cells (human fetal islet line), insulin promoter-eGFP reporter, imaging; reporter expression induced with tamoxifen. hit rate 0.9% among 130,000;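 active = inhibition above the mean plus 3 SD, with well images judged a real hit on visual review, cut at about 60% in these data, passing the limit was not always enough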
GALR2 agonist – agonists of human galanin receptor 2 (GALR2) | GALR2-expressing cells, agonist activation read-out | activation, %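 (tested at 5 µM)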 | hit rate 0.48% among 140,000;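 active = above mean plus 3 SD of all compounds, about 5% in these data, not always enough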;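 note: 0% = vehicle buffer wells and 100% = reference agonist at full effect; tested in CHO reporter cells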
Target sequence (O43603 whole entry, looked up): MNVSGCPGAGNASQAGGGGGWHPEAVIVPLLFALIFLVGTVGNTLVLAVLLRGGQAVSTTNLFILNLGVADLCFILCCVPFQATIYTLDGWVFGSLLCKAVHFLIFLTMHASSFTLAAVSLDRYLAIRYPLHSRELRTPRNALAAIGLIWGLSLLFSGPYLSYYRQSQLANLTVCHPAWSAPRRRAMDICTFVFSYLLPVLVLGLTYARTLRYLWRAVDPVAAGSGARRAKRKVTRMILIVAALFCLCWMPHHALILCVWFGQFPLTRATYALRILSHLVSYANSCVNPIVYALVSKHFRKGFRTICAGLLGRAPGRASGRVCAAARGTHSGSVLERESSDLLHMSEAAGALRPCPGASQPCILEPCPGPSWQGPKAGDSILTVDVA
PKD1 kinase inh – blocks activity of human protein kinase D1; PKD1 kinase fluorescence polarization assay; inhibition, %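 (about 10 µM by stock and volumes)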; hit rate 0.056% among 200,000; AID 797;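 active = inhibition of 50% or more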;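 note: controls were vehicle for no effect and a reference inhibitor for full effect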
RGS16-Gao – RGS16-Galphao interaction regulator (human) | O15492+P09471 | bead-based flow cytometry RGS16-Galphao binding, fluorescence; actives lie on both sides | binding response (% of control), % at 10 µM | hit rate 0.38% among 220,000;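 active = below 25% or above 175%, edge rows of some plates excepted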;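 note: Galphao activated by GDP with aluminum fluoride before binding; 100% = wells without compound and 0% = beads without RGS; some results beyond the cut were filed as inactive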
Target sequence (O15492 whole entry, looked up): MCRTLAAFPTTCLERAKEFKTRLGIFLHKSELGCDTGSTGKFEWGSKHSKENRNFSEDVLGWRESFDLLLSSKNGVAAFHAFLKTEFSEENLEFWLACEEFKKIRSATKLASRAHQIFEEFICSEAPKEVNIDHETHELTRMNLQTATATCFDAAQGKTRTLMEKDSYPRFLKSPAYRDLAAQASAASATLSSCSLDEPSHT
Target sequence (P09471 whole entry, looked up): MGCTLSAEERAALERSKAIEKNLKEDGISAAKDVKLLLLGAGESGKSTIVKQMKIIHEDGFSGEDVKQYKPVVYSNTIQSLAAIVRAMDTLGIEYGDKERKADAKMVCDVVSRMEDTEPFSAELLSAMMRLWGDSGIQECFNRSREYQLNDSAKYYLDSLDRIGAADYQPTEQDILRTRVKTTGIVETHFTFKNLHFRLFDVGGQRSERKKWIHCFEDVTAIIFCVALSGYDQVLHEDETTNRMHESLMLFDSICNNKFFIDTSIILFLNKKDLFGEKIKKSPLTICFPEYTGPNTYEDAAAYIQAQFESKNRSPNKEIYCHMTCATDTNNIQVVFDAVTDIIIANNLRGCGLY
HSV replic up – HSV replication enhancement. HSV replication augmentation in cells, fold increase. maximum fold increase. hit rate 0.005% among 220,000. AID 1956;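 active = peak rise of 1.5-fold or more in the series; tested in PC3 cells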;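 note: first round at 10 µM; read as green reporter fluorescence; hits show the peak of a series up to 25 µM; 1 = signal of infected wells without compound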
INS promoter inh cell count – recorded beside INS promoter inh, whose call it bears; normalized cell count, %; measured here: cell count, toxicity; reference of the scale not given here;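 cells exposed to compound for 48 h; stained nuclei by imaging scaled within each plate; lower means fewer cells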
HSV replic up primary fold – further read-out of HSV replic up, marked with its call; fold increase; compound at 10 µM; measured here: primary screen fold increase 10 uM; tested in PC3 cells;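 GFP signal in the first replicate; 1 = infected wells without compound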
An asterisk follows results filed as active; i = inactive; nt = no result given.

SMILES | INS promoter inh | INS promoter inh cell count | GALR2 agonist | PKD1 kinase inh | RGS16-Gao | HSV replic up | HSV replic up primary fold
CC1=CCC(Cc2nc3ccccc3o2)C1(C)C (stereo not drawn) | 0 | 177 | -1.8 | 2 | 102 | i | 0.86
Cc1cccc(NC(=O)C2CCN(c3nccc(C)n3)CC2)c1 | 0 | 66 | 0.7 | -5 | 96 | i | 1
CC(C)OC(=O)CSc1nnc(-c2ccc(Cl)cc2Cl)n1N | 36 | 74 | -2.4 | -1 | 98 | i | 1.1
CCOC(=O)N1CCN(CCC(=O)Nc2cc(OC)cc(OC)c2)CC1 | 11 | 127 | -1.3 | -1 | 118 | i | 0.83
NC(=O)c1nsc(C(=O)N(c2cccc(F)c2)C(C(=O)NCC2CCCO2)c2cccs2)c1N (stereo not drawn) | i | 93 | nt | 0 | 102 | i | 0.93
CC[n+]1c(C)cc2c(sc3ccccc32)c1C | nt | nt | nt | -1 | 104 | i | 1.1
Cn1c(=O)c2c(nc(N3CCCCC3)n2CCNC2=NCCC2)n(C)c1=O | nt | nt | -0.5 | 6 | 86 | i | 0.98
CCOC(=O)CNC(=O)CSc1nc(N)cc(N)n1 | -16 | 169 | -3.0 | -1 | 96 | i | 0.88
CCN(CC)c1ccc(-c2n[nH]c(=S)n2-c2ccccc2C)cc1 | nt | nt | nt | 0 | 91 | i | 0.92
Cc1nnc(N/N=C/C2CC=CCC2)[nH]c1=O (stereo not drawn) | nt | nt | nt | -7 | 100 | i | 0.97
Cc1ccc(CCNC(=O)CS(=O)Cc2nc(-c3cccs3)oc2C)cc1 (stereo not drawn) | nt | nt | nt | nt | 99 | i | 0.95
O=C(Nc1ccc(F)cc1F)Nc1csc2ccccc12 | nt | nt | nt | nt | 98 | i | 1.1
CNC(=O)NC(=O)COC(=O)/C=C/c1cccc(Br)c1 | 33 | 52 | nt | 4 | 80 | i | 1
Cc1[nH]c2ccccc2c1C(=O)CN1CCCC1 | nt | nt | -2.0 | -5 | 100 | i | 0.91
O=C1c2ccccc2C(=O)C1c1nccc2ccccc12 | 12 | 99 | 1.4 | -5 | 97 | i | 0.9
CSc1cc(-c2ccc(Cl)cc2)c(C(=O)N2CCCC2)s1 | 11 | 63 | 0.7 | 0 | 97 | i | 0.97
CCOP(=O)(OCC)C(NC(C)=O)C(=O)c1ccccc1 (stereo not drawn) | -11 | 73 | nt | 0 | 106 | i | 1.1
COc1ccc(N2CCN(C(=O)CCNC(=O)c3ccc(C(C)(C)C)cc3)CC2)cc1 | 36 | 105 | nt | -6 | 101 | i | 0.94
CN(Cc1ccccc1)c1ccc(N2C(=O)CCCC2=O)cc1[N+](=O)[O-] | -40 | 106 | -1.1 | -6 | 101 | i | 0.88
COc1ccccc1OCCn1c(=O)oc2ccc(C)cc21 | -41 | 108 | nt | -5 | 104 | i | 0.91
CC(C)NC(=O)C(OC(=O)c1ccccc1)C(OC(=O)c1ccccc1)C(=O)O (stereo not drawn) | -16 | 115 | 1.1 | 18 | 105 | i | 0.96
COc1ccc(-c2nc(N)ncc2-c2csc(C)n2)c(O)c1OC | -31 | 102 | nt | -3 | 103 | i | 0.95
O=S(=O)(NC12CC3CC(CC(C3)C1)C2)c1ccc(F)cc1 | 6 | 40 | -0.4 | 11 | 104 | i | 1.1
O=C(COc1ccc(Cl)cc1Cl)Nc1ccccn1 | 16 | 53 | -1.4 | 0 | 98 | i | 0.95
O=C1CCCC(O)=C1C=Nc1ccc(O)cc1 | nt | nt | -2.7 | -8 | 97 | i | 1.1
O=C(Nc1nnc(CCN2CCCCC2)s1)c1ccccc1 | 0 | 81 | nt | -4 | 98 | i | 0.98
CC1(CC(=O)N/N=C/c2ccc(-c3ccc(C(=O)O)cc3)o2)OCCO1 | nt | nt | -2.4 | -10 | 97 | i | 0.84
C=CCn1c(SCc2nc3sc(C(=O)O)c(C)c3c(=O)[nH]2)nnc1-c1ccccc1 | nt | nt | nt | -8 | 99 | i | 0.98
COc1ccc(NC(=O)c2ccc(NC(=O)C(C)C)cc2)c([N+](=O)[O-])c1 | 3 | 141 | 1.5 | -1 | 109 | i | 1.1
CN(CCn1ccnc1)Cc1cn(Cc2ccccc2)nc1-c1ccc2c(c1)OCO2 | nt | nt | nt | nt | 77 | i | 0.89
CCOCCn1c(-c2ccccc2)nc2ccccc21 | nt | nt | nt | nt | 98 | i | 0.61
CCCCCCNCc1ccc(Br)cc1 | nt | nt | -0.5 | -19 | 69 | i | 1
O=C(CCCCl)NC1=NN(c2ccccc2)C(=O)C1 | 2 | 141 | -1.1 | 5 | 90 | i | 0.94
CC1CSc2ccccc2NC1=S (stereo not drawn) | 52 | 86 | -0.2 | 1 | 105 | i | 0.84
C=CCn1c(=O)c2ccccc2n2nnc(C(=O)OCC)c12 | nt | nt | nt | nt | 105 | i | 0.98
Cc1ccc(NC(=O)COC(=O)c2ccc([N+](=O)[O-])s2)c(C)c1 | nt | nt | -1.5 | -2 | 98 | i | 0.91
O=C1c2ccccc2NC2CCCCCN12 (stereo not drawn) | 61 | 84 | -2.6 | -10 | 101 | i | 0.9
O=C(O)C1C2C=CC(O2)C1C(=O)Nc1ccc(S(=O)(=O)Nc2ccccc2)cc1 (stereo not drawn) | -128 | 62 | -2.9 | -4 | 100 | nt | nt
COc1ccc(CN(C)CC(=O)NC(C)c2ccccc2)c(OC)c1 (stereo not drawn) | nt | nt | nt | -2 | 88 | i | 1.1
COC(=O)c1cc(C#N)c(Oc2ccccc2)nc1C | nt | nt | 0.3 | 0 | nt | i | 0.98
CCCOc1ccc(N2C(=O)CC(NCCNc3ccc(S(=O)(=O)CC)cc3)C2=O)cc1 (stereo not drawn) | 21 | 105 | 0.4 | 0 | 98 | i | 0.9
CCN1CCN(c2ccc(N=Cc3ccc(O)cc3O)cc2)CC1 | nt | nt | nt | 2 | 109 | i | 0.95
CCN(CC)CCN1C(=O)C(O)=C(C(=O)c2ccco2)C1c1ccccn1 (stereo not drawn) | 16 | 74 | 0.7 | -10 | 99 | i | 1
COc1cc2c(cc1OC)CN(C(=O)C1(c3ccccc3)CC1)CC2 | 0 | 77 | -1.4 | 7 | 96 | i | 0.82
Cc1ccnc(SCCn2c(N3CCN(C)CC3)nc3c2c(=O)n(C)c(=O)n3C)n1 | nt | nt | nt | nt | 97 | i | 1.1
CCc1ccc2[nH]c3nc(C)cc(C)c3c(=O)c2c1 | 81* | 127* | 1.1 | -11 | 106 | i | 0.85
COC(=O)c1ccccc1NC(=O)c1ccc(F)cc1 | nt | nt | nt | nt | 104 | i | 0.78
COc1ccc(-c2nc(C#N)c(NCCN(C)C)o2)cc1 | nt | nt | -1.5 | -5 | 102 | i | 0.95
CCOC(=O)C1C(=O)C=C(c2ccc(C)cc2)CC1c1ccccc1 (stereo not drawn) | nt | nt | nt | -4 | 108 | i | 1
O=S(=O)(Nc1nc2ccccc2nc1NCc1ccco1)c1ccc(F)cc1 | nt | nt | nt | nt | 108 | i | 1.1
COc1cc(OC)c(OC)cc1/C=N/NC(=O)c1cccc(S(=O)(=O)N2CCOCC2)c1 | nt | nt | nt | -4 | 86 | i | 0.97
O=C(NCc1cccs1)C1CC(=O)N(c2ccccc2)C1 (stereo not drawn) | -12 | 115 | -0.9 | -3 | 93 | i | 0.95
O=C(CSc1cccc[n+]1[O-])N1CCCc2ccccc21 | -33 | 33 | nt | -4 | 102 | i | 1.2
O=C(CN1CCCCC1)Nc1ccc(F)c(Cl)c1 | -30 | 143 | 0.3 | 10 | 111 | i | 0.94
COc1ccc(CNC(=O)CN(c2cccc(OC)c2)S(C)(=O)=O)cc1 | -58 | 96 | -1.1 | -9 | 98 | i | 1.1
COc1ccccc1NC(=O)c1cccc(S(=O)(=O)N2CCOCC2)c1 | nt | nt | -1.9 | -5 | 65 | i | 0.9
O=C(Nc1ccc(F)cc1)Nc1ccc(Oc2ncnc3cc(Cl)ccc23)nc1 | nt | nt | nt | nt | 97 | i | 1.1
O=C(c1cc2c(s1)CCC2)N1CCN(c2ccccc2)CC1 | 39 | 100 | -0.9 | -10 | 99 | i | 0.81
CCCCC1=CC2=CC(=O)C(C)(OC(=O)CC)C(=O)C2=CN1C1CCCC1 (stereo not drawn) | nt | nt | nt | nt | 98 | i | 0.8
CC1CCC(NC(=O)C2CC(=O)N(c3ccc4c(c3)OCCO4)C2)CC1 (stereo not drawn) | 56 | 36 | nt | -8 | 101 | i | 0.94
The results go on:
SMILES | INS promoter inh | INS promoter inh cell count | GALR2 agonist | PKD1 kinase inh | RGS16-Gao | HSV replic up | HSV replic up primary fold
O=C(CSc1ncnc2c1cnn2CCO)Nc1cccc(C(F)(F)F)c1 | 8 | 123 | -0.4 | -1 | 110 | i | 0.86
Cc1cc(C(=O)C(C)OC(=O)C2=NNC(=O)CC2)c(C)n1-c1ccc(OC(F)F)cc1 (stereo not drawn) | 51 | 98 | -0.7 | -7 | 108 | i | 0.93
O=C(CC1SC(=Nc2ccc(O)cc2)NC1=O)Nc1ccccc1 (stereo not drawn) | nt | nt | nt | nt | 100 | i | 1.4
CCCN(C(=O)c1ccco1)c1nnc(-c2cccc(C)c2)s1 | nt | nt | nt | 2 | 101 | i | 0.94
CCOC(=O)c1cc2sccc2n1CCCN1C(=O)c2ccccc2C1=O | nt | nt | -1.7 | 2 | 100 | i | 0.94
COc1ccc(-c2nsc(SCC(=O)NCC3CCCO3)n2)cc1 (stereo not drawn) | -64 | 109 | nt | -8 | 106 | i | 1.1
COC(C(=O)Nc1cccc([N+](=O)[O-])c1)c1ccccc1 (stereo not drawn) | -24 | 112 | nt | -4 | 96 | i | 1.1
CCSC1=C(C#N)C(c2ccc(C)o2)CC(=O)N1 (stereo not drawn) | nt | nt | nt | nt | 94 | i | 0.91
Cc1noc(C)c1S(=O)(=O)Nc1ccc(C(=O)N2CCC(C)CC2)cc1 | nt | nt | nt | 5 | 99 | i | 0.98
C/C(CC(=O)Nc1cccc(Cl)c1Cl)=N\NC(=O)c1ccccc1C | -100 | 75 | nt | 4 | 98 | i | 1
CC(C)CCn1nnnc1C(c1ccccc1)N1CCC(C(N)=O)CC1 (stereo not drawn) | -3 | 138 | -1.5 | 8 | 103 | i | 0.89
Cc1nnc(NC(=O)C(C)Oc2ccc3c(C)cc(=O)oc3c2)s1 (stereo not drawn) | 0 | 84 | -2.7 | 3 | 101 | i | 0.93
Cn1nc(C(=O)NCc2cccs2)c2ccccc2c1=O | -76 | 148 | 0.1 | -2 | 99 | i | 0.94
c1ccc(C(c2ccccc2)N2CCN(c3nc4ccccc4n4cnnc34)CC2)cc1 | 44 | 87 | -0.3 | -9 | 101 | i | 0.79
CN(C)c1nc(OCCNC(=O)Nc2ccccc2)nc(N2CCOCC2)n1 | 7 | 160 | -0.3 | -3 | 97 | nt | nt
Cc1coc(C)c1C(=O)CC1(O)C(=O)N(Cc2ccccc2)c2ccccc21 (stereo not drawn) | -44 | 110 | -0.7 | -6 | 97 | i | 0.95
CCOC(=O)c1[nH]c2ccc(OC)cc2c1NC(=O)C(C)N1CCC2(CC1)OCCO2 (stereo not drawn) | nt | nt | -1.3 | 8 | 100 | i | 1
Cc1cc(C)c(CSc2ncnc3nc[nH]c23)c(C)c1 | 57 | 148 | nt | -2 | 106 | i | 0.91
O=C(O)c1ccc(NS(=O)(=O)/C=C/c2ccccc2)cc1 | nt | nt | -2.0 | -12 | 106 | i | 1.1
Nc1nnc(SCC(=O)c2ccc3c(c2)NC(=O)CO3)s1 | nt | nt | nt | 1 | 97 | i | 1.1
